eIF4H FP inh: inhibitors of RNA binding by human eIF4H. inhibition, % at 35 µM. Q15056. AID 2012. eIF4H fluorescence polarization binding assay. 290,000 tested, 0.94% active;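 active = 50% or more with normal probe brightness, or confirmed in later tests; about a fifth of its hits are not listed in these tables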;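 note: calls also rest on retests at 20 µM and on dose response follow-up; 0% = protein and probe with vehicle and 100% = probe without protein; strong numbers were not always called active; many hits fall short of the cut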
MT1-MMP act inh: MT1-MMP (human) activation inhibition; HT1080 RFP-PRO-GFP cells, GFP/RFP ratio fluorescence, overnight; percent of plate control window, DMSO zero; GFP/RFP ratio change, % at 20 µM; 360,000 tested, 0.061% active;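 active = GFP/RFP ratio change of at least 30% with cell ATP level not reduced by more than half and red fluorescence within 50% of control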; note: strong numbers were not always called active
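Assay system – RFP-PRO-GFP reporter HT1080 cells · Compound dosing – single dose of 20 µM compound, 1% DMSO final · Incubation – overnight compound exposure at 37 °C · Measure – GFP/RFP fluorescence ratio · Benchmarks – DMSO wells and RFP-L50D-GFP cells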
CSC inhib: blocks cancer stem cells; 300,000 tested, 1.1% active; inhibition, % at 7.5 µM; cancer stem cell-like cells viability, luminescence;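 active = mean at 75% or more and at least half the replicates too; tested in HMLE shEcad cells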;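 note: 0% = median of negative and 100% = median of positive control wells; the first replicate is given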
Rce1 inh: inhibitors of yeast Ras-converting enzyme; yeast membranes, quenched prenylated peptide cleavage fluorescence; Q03530; AID 2563; calls only; 290,000 tested, 0.27% active;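 active = fall in fluorescence gain of 50% or more versus controls, with final raw signal at or below 3038400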;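 note: plate controls were neutral control wells for no effect and wells lacking membranes for full effect; tested at 10 µM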
HIV Env fusion: blocks HIV Env-driven cell-cell fusion | HeLa-JRFL Env/CEM21 cell fusion, luciferase | inhibition, % at 12.3 µM | 360,000 tested, 1.1% active;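 active = mean replicate inhibition score of at least 50 and every replicate individually at or above 50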;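 note: 0% = plate neutral controls and 100% = maraviroc near 300 nM; one replicate is shown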
PABP FP inh: PABP-poly(A) binding inhibition | P11940 | PABP-poly(A) RNA binding, fluorescence polarization | inhibition, % at 35 µM | 290,000 tested, 1% active;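 active = 50% or more with normal probe brightness, or confirmed in later tests; about a fifth of its hits are not listed in these tables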;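 note: calls also rest on retests at 20 µM and on dose response follow-up; controls were probe without protein and protein plus probe with vehicle; some compounds called inactive have numbers as strong as hits; many hits fall short of the cut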
Target sequence (P11940 whole entry, looked up): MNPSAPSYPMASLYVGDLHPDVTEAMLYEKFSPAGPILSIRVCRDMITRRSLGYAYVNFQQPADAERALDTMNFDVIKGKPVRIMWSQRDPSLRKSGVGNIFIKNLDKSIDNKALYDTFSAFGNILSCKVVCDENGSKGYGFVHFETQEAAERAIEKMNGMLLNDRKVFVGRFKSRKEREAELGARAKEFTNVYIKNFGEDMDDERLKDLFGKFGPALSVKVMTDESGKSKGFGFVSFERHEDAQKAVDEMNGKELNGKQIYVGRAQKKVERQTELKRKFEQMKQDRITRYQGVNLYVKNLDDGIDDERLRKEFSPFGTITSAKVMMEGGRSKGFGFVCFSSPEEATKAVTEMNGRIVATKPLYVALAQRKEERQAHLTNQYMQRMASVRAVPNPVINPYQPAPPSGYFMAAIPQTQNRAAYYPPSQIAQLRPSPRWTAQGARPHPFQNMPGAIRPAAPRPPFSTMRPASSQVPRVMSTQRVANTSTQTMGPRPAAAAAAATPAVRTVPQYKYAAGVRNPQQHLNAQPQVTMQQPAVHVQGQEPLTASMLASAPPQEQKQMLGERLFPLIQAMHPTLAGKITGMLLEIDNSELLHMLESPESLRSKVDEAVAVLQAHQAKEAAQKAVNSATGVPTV
UUG fidelity: alters start codon recognition fidelity in yeast | S. cerevisiae UUG-firefly luciferase reporter, luminescence/redox ratio | activity score, % at 18.7 µM | 350,000 tested, 0.13% active | AID 602363;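 active = replicate mean at a twofold rise or more, about +100% in these data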;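 note: firefly luciferase made from a UUG start codon reports start codon fidelity; reporter light over untreated wells divided by growth signal over untreated wells; some hits fall short of that in this replicate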
MT1-MMP act inh RFP: recorded beside MT1-MMP act inh, whose call it bears; RFP signal change, %; measured here: RFP expression control read;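 0 = vehicle wells; hits needed this value within 50% of zero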
* marks the source's active call; other numbers are inactive results; i = inactive; x = not tested or not shown. Not all compounds are listed. The share of hits here may be higher or lower than overall.

Structure	eIF4H FP inh	MT1-MMP act inh	MT1-MMP act inh RFP	CSC inhib	Rce1 inh	HIV Env fusion	PABP FP inh	UUG fidelity
Cc1ccc(-c2nnc(SCCC(=O)N3CCOCC3)o2)cc1	-0.3	-0.2	0.3	6.2	i	9.5	-11.3	x
CCN(CC)S(=O)(=O)c1ccc(NC2c3ncccc3C(=O)N2Cc2ccccc2)cc1 (configuration not stated)	-4.9	1.2	-3.3	x	i	27.0	-5.5	-1.1
Cc1ccccc1Cn1nc(C)c(NC(=O)/C=C/c2cnn(C)c2C)c1C	3.8	2.7	2.0	-16.6	i	3.5	10.4	x
CCOc1cc(/C=N/NC(=O)COc2ccc(C)cc2)ccc1OC(=O)c1cccs1	-2.3	10.7	1.7	20.4	i	x	-6.1	-3.9
O=C(CN1CCC(NC(=O)c2cccc(F)c2)CC1)NCc1ccccc1F	-0.6	6.1	10.8	-10.4	i	-25.2	-3.1	-7.2
O=C(/C=C/c1ccc(OC(F)F)cc1)OCC(=O)N1CCc2ccccc21	x	1.7	1.3	-12.0	i	17.9	x	1.3
COc1ccc(C2C(C(=O)Nc3ccccc3OC)=C(C)Nc3nnnn32)c(OC)c1 (configuration not stated)	-7.6	-5.0	-3.6	-7.7	i	x	3.3	x
COCCNc1nnc(SCC(=O)N(C)c2c(N)n(Cc3ccccc3)c(=O)[nH]c2=O)s1	x	-0.2	2.9	-11.7	i	5.3	x	-9.8
OCCC1CN(Cc2cccn2-c2ncccn2)CCN1C1CCCC1 (configuration not stated)	34.6	-2.1	5.3	-5.2	i	-13.9	-3.5	x
Cc1ccc(-c2noc(-c3ccccc3C(=O)N3CCOCC3)n2)cc1	-14.3	2.8	-1.7	x	i	x	2.4	-10.8
CCS(=O)(=O)c1ccc(C(=O)Nc2ccccc2)c(Cl)c1Cl	1.6	1.3	-11.3	x	i	x	-5.5	-6.0
O=C1CC(c2ccccc2)Sc2ccccc2N1 (configuration not stated)	-14.1	-5.8	1.5	-11.4	i	11.8	-1.0	-7.1
Cc1cccc(NC(=O)c2cccc(S(=O)(=O)NCc3ccccc3)c2)n1	x	0.1	-2.0	14.8	i	19.5	x	-5.9
CCN(CC)S(=O)(=O)c1ccc(NS(=O)(=O)c2ccc(OC)c([N+](=O)[O-])c2)cc1	-3.3	-0.2	-0.1	14.8	i	19.1	4.0	x
O=C(COc1ccc(F)cc1)Nc1ccccc1N1CCOCC1	x	-0.2	1.0	-4.9	i	-249.2	x	11.0
COc1ccc(C(=O)C/C(=C\C(=O)c2ccc(C)cc2)c2ccccc2)cc1	-12.2	-30.4	-21.3	x	i	102.6*	-11.9	-18.3
O=S1(=O)N=C(Nc2ccc(N3CCOCC3)cc2)c2ccccc21	-12.8	-8.4	-4.3	0.3	i	-5.5	-3.4	-15.7
CCN(CC)C(=S)NC(=O)c1ccc(Cl)cc1Cl	3.0	3.3	14.0	-13.3	i	-21.8	1.2	-14.9
COCCCNC(=O)Cn1c(=O)oc2cc(S(=O)(=O)N3CC(C)CC(C)C3)ccc21 (configuration not stated)	1.9	-2.4	-4.5	-21.4	i	-12.9	0.1	-5.2
CN(C)C1=NCCN1CCCC1CCCC1	x	2.4	0.4	35.6	x	6.9	x	-3.7
CCOc1cccc(NC(=O)c2ccc(S(=O)(=O)N(C)C)cc2)c1	-3.4	5.4	4.3	1.8	x	-9.0	2.5	-3.1
COc1ccc(Nc2nc(-c3ccccc3)c(C(=O)Nc3cccnc3)s2)cc1	-7.2	-3.9	-0.4	8.1	i	24.8	5.0	-24.4
O=C(Nc1cccc(Cl)c1)c1ccccc1NC(=O)C1CCCCC1C(=O)O (configuration not stated)	-2.2	1.2	-0.4	x	i	1.7	4.6	21.3
NNC(=S)NC1CC2CC1C1C=CCC21 (configuration not stated)	2.3	-0.9	-2.8	0.3	i	0.0	-4.2	-37.8
COc1cccc(CNCc2ccc(C(=O)O)cc2)c1OC	-5.9	-2.7	0.0	-0.8	i	-1.5	-15.8	x
CCN1CCN(c2ccc(S(=O)(=O)N3CCCCC3)cc2NC(=O)COc2ccc(Cl)cc2)CC1	x	1.8	-1.8	13.9	i	10.0	x	-4.8
CCC(C)C(NC(N)=O)C(=O)Nc1ccc(C(=O)OC)cc1 (configuration not stated)	-1.3	-2.8	-2.0	-2.2	i	-6.1	0.8	18.6
O=C(O)C(=O)/C(=C\c1ccccc1)c1ccc2ccccc2n1	-6.3	0.7	3.7	-1.4	i	x	26.0	-11.7
Cc1ccc(C(c2c(C)nn(-c3ccccc3)c2N)c2c(C)nn(-c3ccccc3)c2N)cc1	-0.8	-5.2	-4.9	6.5	i	-13.0	-7.0	-10.8
COc1ccc(C(C)C)cc1S(=O)(=O)Nc1ccc(Cl)cn1	4.9	1.5	2.0	3.5	i	2.7	6.3	8.3
COc1cccc(CNC(=O)CCNS(=O)(=O)c2ccc3c(c2)oc(=O)n3C)c1	-5.8	-2.3	-1.5	-7.2	i	4.9	-5.1	-10.6
Cc1cc(Br)cn2c(CC(C)(C)C)c(-c3cccc(Cl)c3)nc12	x	-1.2	-0.6	x	x	7.4	x	-21.5
Cc1ccc(C(=O)N/C(=C/c2ccc(F)cc2)C(=O)NCc2ccncc2)cc1	-1.3	2.0	2.1	-6.0	i	4.9	-8.7	-14.6
CCOC(=O)C1(Cc2ccccc2)CCCN(C(=O)c2cnn(CC)c2)C1 (configuration not stated)	-2.5	1.0	1.9	-8.2	i	-41.7	-12.2	2.0
COc1ccc2[nH]c3c(c2c1)CCN1C(=O)C(CC(=O)NCCCN(C)C)C[C@H](C(=O)N(C(C)C)C(C)C)[C@@]31C (some centres not stated)	x	0.8	3.0	x	x	-3.0	x	-4.6
COc1ccc(CCN2CCCC(CN(C)Cc3cc(OC)ccc3OC)C2)cc1 (configuration not stated)	7.5	6.4	2.4	23.3	i	11.8	10.2	-21.3
CC(C)C12CN3CC(C(C)C)(CN(C1)C3c1ccccc1)C2O (configuration not stated)	-11.4	x	x	-4.7	i	x	3.6	-9.9
CCOC(=O)Cc1nnc(Nc2ccc(C)cc2C)c2ccccc12	-6.7	-0.1	-0.2	-17.1	i	-10.3	0.0	x
O=C(OCC(=O)N1CCCCC1)c1c[nH]c(=O)[nH]c1=O	5.6	3.1	6.7	0.9	i	x	-5.2	-18.2
Cc1cc(C(=O)CN2C(=O)C(=O)N(CC(C)C)C2=O)c(C)n1-c1ccccc1F	5.3	3.2	2.1	-13.0	i	-10.2	-3.8	x
COc1ccc(Cl)cc1NC(=O)CCCN1C(=O)CCC1=O	2.7	2.8	1.7	2.6	i	-95.6	10.8	-3.3
CCOC(=O)c1ccc(NC(=S)N(CCCN2CCCC2)Cc2cccs2)cc1	28.0	-4.0	0.3	x	i	16.5	-6.2	-21.4
Cc1ccc(N2C(=O)N(CC(=O)N3CCc4ccccc43)C(=O)C2C)cc1 (configuration not stated)	x	-1.7	3.2	x	x	11.0	x	-15.7
O=C(CCCC(=O)N(CC(=O)NC1CCCCC1)c1ccccc1F)Nc1ccccn1	-3.3	-0.8	1.0	-1.6	i	-4.2	1.4	10.7
COc1ccc(S(=O)(=O)N2CCN(CC(=O)NC3CCCC3)CC2)cc1	-13.7	-0.7	0.8	10.1	i	-1.0	4.6	-13.3
Cc1cccc(OCCSCc2nc3ccccc3[nH]2)c1	-9.3	-0.6	-9.0	-10.1	i	x	8.7	-28.3
COc1ccccc1NC(=O)Nc1cc(NC(=O)Nc2ccccc2OC)c(C)nc1C	0.3	-3.6	-4.1	-0.2	i	x	7.5	x
Cc1cc(OCC(=O)NCc2cccnc2)c2c(C)c(Cc3ccccc3)c(=O)oc2c1	-5.0	2.2	-1.6	-6.5	i	-7.8	-12.2	0.9
O=C(COCc1nc2ccccc2c(=O)[nH]1)NCC1CCCCC1	-4.5	-8.0	4.4	-8.7	i	x	-4.4	x
NC(=Nc1ccccc1)N(c1ccccc1)c1ccccc1	x	-3.4	-2.0	x	x	-1.0	x	-15.2

A different layout for 2 compounds above.
> O=C(OCC(=O)N1CCCCC1)c1c[nH]c(=O)[nH]c1=O
  eIF4H FP inh: 5.6 | MT1-MMP act inh: 3.1 | MT1-MMP act inh RFP: 6.7 | CSC inhib: 0.9 | Rce1 inh: i | HIV Env fusion: x | PABP FP inh: -5.2 | UUG fidelity: -18.2
> Cc1cc(C(=O)CN2C(=O)C(=O)N(CC(C)C)C2=O)c(C)n1-c1ccccc1F
  eIF4H FP inh: 5.3 | MT1-MMP act inh: 3.2 | MT1-MMP act inh RFP: 2.1 | CSC inhib: -13.0 | Rce1 inh: i | HIV Env fusion: -10.2 | PABP FP inh: -3.8 | UUG fidelity: x

(continued)
Structure	eIF4H FP inh	MT1-MMP act inh	MT1-MMP act inh RFP	CSC inhib	Rce1 inh	HIV Env fusion	PABP FP inh	UUG fidelity
CCCn1c(SCC(=O)NNC(=O)c2ccccc2)nnc1-c1cccnc1	-1.7	-6.5	3.2	7.4	i	1.9	4.0	x
O=C(N/N=C/c1c(O)n(-c2ccc(Cl)cn2)c(=O)c2ccccc12)c1ccncc1	-1.3	-94.3	6.6	-24.7	i	9.1	0.3	-18.1
CCCN1C(=O)c2cc(C(=O)Nc3cccc(C(C)=O)c3)ccc2C1Nc1cccc(C(C)=O)c1 (configuration not stated)	0.0	7.2	-5.1	-1.9	i	6.0	-5.0	6.2
C=C(C)c1cccc(C(C)(C)NC(=O)Nc2ncccn2)c1	-2.1	-3.0	-10.5	6.1	i	-46.7	-1.1	-10.0
O=C(Cc1ccc(Cl)cc1)Nc1ccc(Br)cn1	-6.0	-0.7	-5.2	-1.4	i	-10.6	1.5	-3.8
Cc1cc(C)c(OCCCON2C(=O)CCC2=O)c(Br)c1	5.0	-1.5	2.1	-11.5	i	-18.7	-1.6	x
COc1cc(OC)cc(C(=O)NNC(=O)C2CCCC2)c1	-1.9	2.4	7.3	-7.7	i	-6.3	-7.8	x
COc1ccc(CCN=C(N)NS(=O)(=O)c2cc(F)ccc2OC)cc1	2.9	-2.4	0.5	-2.8	i	9.7	4.8	-7.2
COc1ccc(-c2nc3cnccn3c2Nc2ccc(C)cc2)cc1	-6.4	11.3	-1.6	41.7	i	-21.5	-8.5	-15.6
Cc1ccnc2nc(C(=O)OCC(=O)N(CC(C)C)CC(C)C)nn12	5.7	-2.1	3.1	-1.4	i	-3.9	-1.9	x
N#C/C(=C(\O)CCl)c1nnc2n1CCCCC2	-2.2	4.0	4.5	-18.1	i	x	2.6	x
CN(C)CCN(Cc1ccccc1)C(=O)C1CCN(c2ncnc3c2nc2n3CCCCC2)CC1	-14.8	-1.5	-1.5	1.6	i	2.3	6.7	-19.4
O=C(Nc1cccc(Cl)c1)/C(=C\c1cccnc1)NC(=O)c1ccco1	-6.7	5.0	6.0	-5.0	i	-13.2	-8.4	x
Cc1ccccc1Cn1c(=O)n(CCC(=O)NCc2ccc3c(c2)OCO3)c(=O)c2ccccc21	-5.2	2.1	2.2	-0.7	i	-5.8	-9.7	-10.5
COc1cc(C(=O)N2C[C@@H]3CCC[C@H]2C3)ccc1OC1CCN(C(C)=O)CC1	4.0	-1.0	-0.3	1.1	x	-2.2	-7.1	-19.0
Cc1cccc(N2C(=O)C3C4CC(=O)C(c5ccccc54)C3C2=O)c1C (configuration not stated)	9.0	-1.1	2.8	-11.1	x	20.4	6.4	x
CSc1nc2ncc(-c3ccsc3)c(N)n2n1	3.6	-0.7	2.3	-2.8	i	1.1	3.3	x
COC(=O)[C@H](C)NC(=O)Nc1ccc(C)c(C)c1	1.9	-0.1	5.9	-3.8	i	x	-9.7	-5.9
CCN(CC)CCCN1CC(=O)N2[C@@H](Cc3c([nH]c4ccccc34)C2(C)C)C1=O	-6.9	0.4	1.7	-5.7	i	-3.3	-0.7	-5.1
COc1cc(-c2cc3nc(NC4CCCCC4)ccn3n2)cc(OC)c1OC	x	19.9	-0.9	x	x	-9.5	x	2.1
COCCn1c(SCC(=O)N2CCCCC2)nc2c([nH]c3ccccc32)c1=O	1.5	-2.5	-2.9	-8.0	i	-0.9	-6.5	-23.7

From PubChem
